# Screening results deposited in PubChem BioAssay by National Center for Advancing Translational Sciences (NCATS).
# HTT promoter inh: Primary qHTS for Identification of Small Molecule Inhibitors of Huntingtin Promoter Activity. Potency, µM (doses to about 57.5 µM), inactives show at the top dose activity change, negative = inhibition, usual class: inhibitors. HEK293 HTT promoter firefly luciferase reporter (activity 0% = vehicle and -100% = no light), 24 h. 48,000 compounds, 0.93% hits; active = well fitted inhibition curve with a large enough effect; inconclusive = small, poorly fitted or top-dose-only effect; inactive = no such curve, though single readings can be large or run the other way; also: nearly all actives have a fitted effect of over 50% in size
#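 HEK293 luciferase promoter-reporter cells (2,500/well) plated 24 h, then compounds added at up to 57.5 uM final for 24 h at 37 °C. Firefly luminescence by Dual-Glo, normalized to vehicle (0%) and zero RLU (-100%).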
# PMP22 txn prim: Cell-based coincidence reporter assay to measure PMP22 gene transcription in S16 Pmp22-F2sN cells - Primary screen | S16 Pmp22-F2sN Schwann cells (luciferase reporters placed in the Pmp22 gene), FLuc/NLuc coincidence luminescence, 24 h | Potency, µM (doses to about 57.5 µM), inactives show at the top dose activity change, negative = inhibition, most hits filed as inhibitors | 43,000 compounds, 2% hits | AID 1508649, 2021; active = clear falling dose curves in both reporters; inconclusive = both reporters move, but less clearly or upward; inactive = either reporter flat; the % is the NLuc reporter signal; also: % is scaled to controls: 0 for no effect and ±100 for the full control effect; some results filed as inactive show a strong effect at the top dose
#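 S16 Schwann cells carrying FLuc/NLuc coincidence reporter in the Pmp22 3' UTR treated with compound 24 h at 37C; FLuc then NLuc luminescence read sequentially by dual-luciferase reagents.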
# * = called active by the depositor; ? = inconclusive; . = no result given; [ ] = another dose, or the depositor's remark. Potency is read from the fitted curve at half-maximal effect. A portion of the library (hit frequency here may not be typical).
SMILES	HTT promoter inh	PMP22 txn prim
Cc1oc2ncnc(N3CCCCC3)c2c1C(=O)NCC1CCN(Cc2ccc(F)cc2)CC1	-9%	?
CCCc1cnc2c(c1SCc1cccc(F)c1)c(=O)n(C)c(=O)n2C	?	62%
Nc1cc(=O)nc(SCC(=O)Nc2ccc(F)cc2)n1CCc1ccccc1	-15%[11.5 µM]	15%
CCc1ccc(NC(=O)c2ccc3oc(=O)n(Cc4ccccc4)c3c2)cc1	?	?
Cc1cc(C)cc(-n2c(-c3ccccc3)c(C)n3c4c(=O)n(C)c(=O)n(C)c4nc23)c1	-7%	-9%
CC(=O)Nc1nnc(SCc2cc(=O)c3cccc(Cl)c3[nH]2)s1	-7%	-13%
CC(=O)N1CCc2c(sc3c2c(=O)n(-c2ccccc2)c(=O)n3CC(=O)Nc2cc(C)cc(C)c2)C1	-2%	?
CC(CNC(=O)CCCn1c(=O)c2cccn2c2cccnc21)c1ccccc1 (configuration not stated)	-9%	?
Cc1ccc(C)c(N2CCN(C(=O)c3cc4cc5ccc(C)cc5nc4s3)CC2)c1	9%	5%
COc1cc(-c2noc(-c3ccc(N4CCCC4)c([N+](=O)[O-])c3)n2)cc(OC)c1OC	-12%	23%
CCOc1ccc(Sc2cc(C(=O)NCc3ccccc3Cl)c3ccccc3n2)cc1	-25%	?
Cc1ccc(C)c(N2CCN(CCCNC(=O)c3ccc4nc(CCc5ccccc5)oc4c3)CC2)c1	-9%	?
Cc1ccc(-c2noc(CCCC(=O)NCc3ccco3)n2)cc1	3.5µM*	-17%
Cc1ccc(S(=O)(=O)c2nc(-c3cccc(C)c3)oc2N2CCN(c3ccccc3)CC2)cc1	-23%	-25%
O=C(Cn1c(=O)n(Cc2nc(-c3ccccc3)no2)c(=O)c2cc3c(cc21)OCO3)Nc1ccccc1	-6%	16%

# Shown as labelled records: entries from further up.
Structure: O=C(Cn1c(=O)n(Cc2nc(-c3ccccc3)no2)c(=O)c2cc3c(cc21)OCO3)Nc1ccccc1
  HTT promoter inh: -6%
  PMP22 txn prim: 16%
Structure: Cc1ccc(C)c(N2CCN(CCCNC(=O)c3ccc4nc(CCc5ccccc5)oc4c3)CC2)c1
  HTT promoter inh: -9%
  PMP22 txn prim: ?
Structure: Cc1ccc(S(=O)(=O)c2nc(-c3cccc(C)c3)oc2N2CCN(c3ccccc3)CC2)cc1
  HTT promoter inh: -23%
  PMP22 txn prim: -25%
Structure: Cc1oc2ncnc(N3CCCCC3)c2c1C(=O)NCC1CCN(Cc2ccc(F)cc2)CC1
  HTT promoter inh: -9%
  PMP22 txn prim: ?

# Remaining list, next part.
SMILES	HTT promoter inh	PMP22 txn prim
Cc1cc(C)c(NC(=O)c2cc(S(=O)(=O)N3CCCC3)cn2C)c(C)c1	-7%	1%
COc1ccc(CCN(C)CCCOc2ccc(S(=O)(=O)c3[nH]c4ccccc4c3C(C)C)cc2)cc1OC	8%	.
COc1ccccc1N1CCN(C(=O)CCn2nc(C)c(S(=O)(=O)N3CCCC3)c2C)CC1	-22%	-2%
COc1ccc(-c2cccc(NS(=O)(=O)c3cc(C)ccc3OC)c2)nn1	?	-23%
CCOc1cccc2sc(=NC(=O)c3ccc(S(=O)(=O)N4CCOCC4)cc3)n(C)c12	-19%	-12%
CC(=O)OCC(=O)Nc1cc(C#N)cc(NC(=O)COC(C)=O)c1Cl	-4%	.
CCOc1ccc(NC(=O)Cn2cc(C(=O)c3ccc(C)c(C)c3)c(=O)c3cc4c(cc32)OCCO4)cc1	-8%	2%
COc1cccc(CNC(=O)c2c(C)nn(-c3ccc(F)cc3)c2-n2cccc2)c1	?	?
CC1CCCN(c2nc3c(-c4ccc(Cl)cc4)nnn3c3ccccc23)C1 (configuration not stated)	-20%	2%
COc1cn(CC(=O)Nc2cc(C)ccc2C)c(CN2CCCCC2)cc1=O	-20%	11%
CC(C)(C)OC(=O)N1CCC(c2c(C(=O)N3CCc4ccccc4C3)cnn2-c2ccc(F)cc2)CC1	-19%	-8%
CCNC(=O)c1nn(-c2ccccc2C)nc1CO	3%	-4%
CC(C)Cn1c(-c2cccc(Br)c2)nc2ccccc21	-29%	?
COC(=O)c1sc(-c2ccccc2)cc1NC(=O)Nc1ccc(F)cc1	-25%	-16%
COc1cccc(NC(=O)Cn2c(=O)cc(C)c3c(C)nn(-c4cccc(F)c4)c32)c1	34%	-16%
CC1CCN(S(=O)(=O)c2ccc3c(ccc(=O)n3CC(=O)Nc3ccc(C(C)C)cc3)c2)CC1	-28%	-30%
CCOCN(C(=O)CSc1nc2ccccc2[nH]1)c1c(C)cccc1CC	-31%	-7%
Cc1nn2c(=O)cc(COC(=O)c3cccc(NC(=O)c4ccc(F)cc4)c3)nc2s1	?	-48%
COc1ccccc1CNC(=O)C1CCN(S(=O)(=O)c2ccc3c(ccn3C)c2)CC1	-18%	-9%
CCOC(=O)CSc1nc2sc3c(c2c(=O)n1Cc1ccccc1)CC(C(C)C)OC3 (configuration not stated)	9%	-7%
Cc1cc(C)cc(NC(=O)CCC(=O)N2CCSc3ccccc32)c1	?	-10%
O=C(NCCO)c1ccc(-c2nnc(Nc3ccc(OC(F)(F)Cl)cc3)c3ccccc23)cc1	?	?
Cn1nnnc1SCCCNCc1cc(Cl)ccc1OCc1ccccc1F	?	?
O=C(CN1C(=O)COc2ccc(S(=O)(=O)N3CCCCCC3)cc21)NCCc1ccccc1	-3%	-6%
COc1cc(OC)c(NC(=O)c2nnn(Cc3ccc(C)cc3)c2N)cc1Cl	?	5%
COc1ccc(CNC(=O)CCc2cn(C)c3ccccc23)cc1	-3%	9%
O=C(Cn1c(=O)oc2cc(S(=O)(=O)NCc3ccccc3)ccc21)NCc1ccccc1Cl	?	?
COc1ccc(OC)c(CNC(=O)c2cc(-c3ccc(Cl)s3)nc3ccccc23)c1	-13%	-4%
CCCCCCCCCCCCCCCCCC(=O)OCC(O)CO (configuration not stated)	3%	.
COc1cccc(NC(=O)Cc2ccc(NC(=O)N3CCCCc4ccccc43)cc2)c1	-19%	5%
CCOc1ccc(-c2nnc(SCC(=O)Nc3cccc(Cl)c3C)o2)cc1	?	-22%
O=C(NCCN1CCN(c2ccccc2)CC1)Nc1ccccc1Br	-3%	-15%
COc1ccc(OC)c(CNc2ncnc3onc(C)c23)c1	?	-20%
O=C(Nc1ccccc1Cl)N1CCC(CN2CCCCC2)CC1	-10%	-10%
Cc1ccc(Cl)cc1NC(=O)C1CCN(c2nc3ccccc3n3cccc23)CC1	1%	-23%
Cc1cc(C)c2nc(N(Cc3cccnc3)C(=O)c3ccc(S(=O)(=O)N(C)C)cc3)sc2c1	-22%	?
CC(=O)c1ccc(NC(=O)Cn2cc(S(=O)(=O)Cc3cccc(Cl)c3)c3ccccc32)cc1	?	?
Cc1ccc(C)c(N2CCN(S(=O)(=O)c3ccc4c(c3)CCCN4C(=O)C3CCC3)CC2)c1	?	?
CCOc1cccc2sc(N(Cc3cccnc3)C(=O)C3CCCCC3)nc12	-16%	?
COc1ccc(-c2nc3c(c(SCc4cc(C)ccc4C)n2)Cc2c(CO)cnc(C)c2O3)cc1	-9%	-24%
CN(c1ccc(Cl)cc1)S(=O)(=O)c1nnc(NC(=O)C2CCCCC2)s1	-4%	-40%
COc1ccccc1-c1nnc(C2CCN(S(=O)(=O)c3ccc(F)c(C)c3)CC2)o1	?	0%
CCOc1ccc(NC(=O)Cn2cc(S(=O)(=O)N3CCN(c4ccccc4F)CC3)c3ccccc3c2=O)cc1	-2%	0%
Cc1ccc(C)c(N2CCN(S(=O)(=O)c3cc(C(=O)Nc4ccccc4C(F)(F)F)ccc3F)CC2)c1	?	?
Cc1ccc(C)c(NC(=O)CSc2cn(CC(=O)N3CCCC3)c3ccccc23)c1	-21%	-11%
CCOc1ccccc1C(=O)N1CCC(c2nc3ccccc3o2)CC1	-20%	0%
O=S(=O)(c1cccc(F)c1)N1CCC(c2nc3ccccc3s2)CC1	-16%	-19%
Cc1nnc(N2CCC(C(=O)NC(C)C)CC2)c2nn(-c3ccc(Cl)cc3)c(C)c12	-3%	-2%
Cc1cccc(Cn2cc(C(=O)Nc3cc(F)ccc3F)ccc2=O)c1	?	?
CC1=C(C(=O)Nc2ccccc2)C(c2ccc(Br)cc2)n2nc(CCCO)nc2N1 (configuration not stated)	-13%	13%
Cc1ccc(CCNC(=O)c2ccc3c(c2)N(Cc2ccccc2F)C(=O)c2ccccc2S3=O)cc1 (configuration not stated)	3%	-6%
O=C(Nc1ccc2nc(SCCOc3ccccc3)sc2c1)c1ccccc1F	4%	?
CC1(C)CC(=O)c2cc(C(=O)Nc3ccc(Cl)cc3)c(=O)[nH]c2C1	34%[activator]	25%
COc1ccc(CCNC(=O)c2ccc3c(c2)N=C(C)c2cc(C)ccc2S3)cc1OC	?	?
CCN(Cc1ccccc1)c1nc2c(S(=O)(=O)c3ccccc3)nnn2c2ccc(Cl)cc12	-17%	-7%
COc1ccccc1NC(=O)Cn1nnc(C(=O)NCc2ccc3c(c2)OCO3)c1N	-18%	?
Cc1ccc(-n2ncc(C(=O)NCc3ccccn3)c2C2CCN(C(=O)OC(C)(C)C)CC2)cc1C	-18%	?
O=C(c1ccc2c(c1)N(Cc1ccccc1F)C(=O)c1ccccc1S2(=O)=O)N1CCc2ccccc21	?	-7%
CCCCOc1ccc(Cn2c(=O)oc3ccccc32)cc1	14%	-33%
COc1ccc(-c2noc(CC(=O)N(C)c3cc(Cl)c(OC)cc3OC)n2)cc1	-27%	-6%

# The list continues:
SMILES	HTT promoter inh	PMP22 txn prim
Cc1cc(C)cc(N(CC(=O)NCc2ccccc2Cl)S(=O)(=O)c2c(C)[nH]c(=O)[nH]c2=O)c1	-12%	-42%
COc1cc(-c2nc3ccccn3c2Nc2ccccc2C)ccc1O	-11%	?
CC(=O)Nc1c(C)nn(-c2ccccc2)c1N1CCC(C(=O)Nc2cc(Cl)ccc2C)CC1	4%	13%
Cc1cc(C)nc(NS(=O)(=O)c2ccc(NC(=O)c3nc(SC(C)C)ncc3Cl)cc2)n1	?	10%
O=C(CC(c1cccs1)N1Cc2ccccc2C1=O)Nc1ccc(F)c(F)c1 (configuration not stated)	?	-16%
COc1cc(C(=O)NCc2ccc3c(c2)CCN3C(=O)c2ccncc2)cc(OC)c1OC	-9%	6%
COc1ccc(-c2c3c(=O)n(C)c(=O)n(C)c3c3c(-c4cccc(C)c4)nc4ccccc4n23)cc1	?	2%
COC(=O)c1scc(-c2ccc(C)cc2)c1S(=O)(=O)N1CCN(c2ccc(OC)cc2)CC1	-22%	-8%
COc1ccc(NC(=O)c2sc3nc4c(cc3c2N)CN(C(C)C)CC4)c(OC)c1	-14%	?
Cc1ccccc1-n1cc(-c2ccccc2)nc1SCC(=O)Nc1ccc(F)cc1	?	7%
O=C(c1ccc2c(c1)N(Cc1ccccc1)C(=O)c1ccccc1S2=O)N1CCC(Cc2ccccc2)CC1 (configuration not stated)	?	?
Cc1ccc(NC(=O)CCS(=O)(=O)c2ccc(Br)s2)c(Br)c1	-17%	-7%
CCOc1ccccc1C(=O)Nc1ccc(S(=O)(=O)Nc2ncccn2)cc1	-9%	14%
Cc1cccc(NC(=O)CSc2nc3c([nH]c4ccccc43)c(=O)n2C)c1	-21%	?
COc1ccc(NC(=O)C2(c3cccs3)CCOCC2)cc1Cl	-8%	-8%
Cc1cccc(-n2ncc(C(=O)N3CCN(c4ccc(C)cc4C)CC3)c2C2CCN(C(=O)OC(C)(C)C)CC2)c1	3%	?
CCc1cccc(C)c1NC(=O)CSc1n[nH]c(-c2ccccc2)n1	?	-1%
COc1ccccc1/C=C/c1nc(C#N)c(N2CCN(C)CC2)o1	6%	5%
COc1ccc(C2=C(C(C)=O)Sc3nnc(-c4ccccc4)n3N2C(C)=O)cc1	-17%	-7%
CCn1c(=O)c2sccc2n2c(CCCC(=O)Nc3ccc(C)cc3)nnc12	-12%	-2%
COCCCNC(=O)C1CCN(C(=O)c2cnn(-c3ccccc3)c2-n2cccc2)CC1	-11%	-4%
CCOc1ccc(C(=O)c2cn(CC(=O)Nc3ccc(Cl)cc3)c3cc4c(cc3c2=O)OCO4)cc1	?	-13%
CCn1cc(C(=O)O)c(=O)c2cnc(N3CCCC3)nc21	3%[11.5 µM]	.
COc1ccc(CNC(=O)c2cc3cc(S(=O)(=O)N4CCCCC4)ccc3n2C)c(OC)c1	?	-22%
O=C(c1ccc2c(c1)N(Cc1ccccc1F)C(=O)c1ccccc1S2=O)N1CCOCC1 (configuration not stated)	-22%	-5%
Cc1ccc(C(=O)N2CCc3cc(CNC(=O)CCc4ccccc4)ccc32)cc1	?	-51%
